Biofilm kill mix – clotrimazole potentiators killing C. albicans biofilm, primary screen, 4-compound mixtures | 120,000 tested, 0.02% active | C. albicans biofilm persisters + clotrimazole, fluorescence viability; primary screen in compound mixtures of four per well | AID 1242, 2008 | inhibition, % at 7.6 µM;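 active = inhibition above 30.3% in the primary screen of four-compound pools, then above 30% when the compound was retested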;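 note: compounds exposed to preformed 24 h biofilms for 48 h; the number belongs to the whole pool; some results filed as inactive read as strong as hits; inactives centre near 12; 0% = biofilm with clotrimazole alone and 100% = kill control; retested singly at about 60 µM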
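Probe or stimulus – Clotrimazole 50 µg/mL co-treatment · System – C. albicans biofilms · Schedule – 24 h biofilm formation, then 48 h compound exposure, 37 °C · Evaluation – percent inhibition of biofilm viability · Technique – 2-h Alamar Blue fluorescence, 535/590 nm excitation/emission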
Active calls of the source: *. This is a subset, so the mix of outcomes need not match the whole.

SMILES | Biofilm kill mix
CC(C(=O)N1CCCCC1)N(C)CC(=O)Nc1ccc(Cl)cc1 (centres undefined) | 17
CC(C)c1ccc(/C=C/C(=O)NC(=S)Nc2ccc(CN3CCOCC3)cc2)cc1 | 5
COc1ccc(CCN2C(=O)c3cccc4c(C(=O)N5CCCCC5)ccc(c34)C2=O)cc1OC | 22
CC1CCN(C(=O)/C(=C\c2cccs2)NC(=O)c2ccccc2)CC1 | 7
N=C1/C(=C/c2cccn2CCOc2ccccc2)C(=O)N=C2SC=C(c3ccccc3)N12 | 20
COC(=O)N/N=C(\C)c1ccc(OC(F)F)cc1 | 9
CCCNC(=S)N1CCCC(c2nc3ccccc3[nH]2)C1 (centres undefined) | -4
Cc1c(NC(=S)NC(=O)c2ccco2)cccc1-c1nc2ncccc2o1 | 5
COc1cc(/C=N/NC(=O)c2ccc(C)nc2)cc([N+](=O)[O-])c1O | 15
COc1ccc2c(c1OC)C(=O)O[C@@H]2[C@H]1c2c(cc3c(c2OC)OCO3)CCN1C | 5
CCOC(=O)C1(CCCc2ccccc2)CCN(C(=O)CCOC)CC1 | 14
[O-]/C(=C(\C(=S)Nc1cccc2ccccc12)[n+]1ccccc1)c1ccc(Cl)s1 | 8
O=C(COc1ccccc1C(=O)NCc1ccncc1)Nc1ccc(Br)cc1 | 20
CC1CCCCC1NC(=O)/C(C#N)=C/c1ccc2c(c1)OCCO2 (centres undefined) | -4
Cc1cc(Cl)ccc1NNC(=O)c1cccs1 | -2
COc1ccc(NC(=O)c2ccccc2N(Cc2ccccc2)S(C)(=O)=O)cc1OC | 18
O=C1CCCC(O)=C1N=Nc1ccc(Cl)c(Cl)c1 | 1
CCOc1cccc(CNCc2cccnc2)c1OCc1ccccc1 | -4
CCN(CC(=O)NCc1cccs1)c1ccc(S(=O)(=O)N2CCN(C)CC2)cn1 | 21
O=C(C1CCCO1)N1CCN(C(=S)Nc2ccccc2F)CC1 (centres undefined) | 23
COc1ccccc1N1CCN(/N=C/c2ccc(OC)c(OC)c2OC)CC1 | 10
Cc1cc(Br)cc(Cl)c1OCC(=O)NC(=O)NCc1ccccc1 | 20
CC(C)Nc1nc(NC(C)C)nc(NS(=O)(=O)c2ccc(N)cc2)n1 | 15
Cn1nccc1C(=O)Nc1sc2c(c1C(N)=O)CCCC2 | 11
COc1ccc(N=C2SCC(=O)N2CCc2ccc(OC)c(OC)c2)cc1 | 23

The closing 5 entries of the section before come first, to join the parts:
SMILES | Biofilm kill mix
COc1ccccc1N1CCN(/N=C/c2ccc(OC)c(OC)c2OC)CC1 | 10
Cc1cc(Br)cc(Cl)c1OCC(=O)NC(=O)NCc1ccccc1 | 20
CC(C)Nc1nc(NC(C)C)nc(NS(=O)(=O)c2ccc(N)cc2)n1 | 15
Cn1nccc1C(=O)Nc1sc2c(c1C(N)=O)CCCC2 | 11
COc1ccc(N=C2SCC(=O)N2CCc2ccc(OC)c(OC)c2)cc1 | 23
CCOC(=O)Nc1ccc2c(COC(=O)CNS(=O)(=O)c3cccc(Br)c3)cc(=O)oc2c1 | 0
NC(=O)CS(=O)(=O)c1nc2ccccc2n1Cc1ccccn1 | 20
CCCN(C(=O)COc1ccc(Cl)cc1Cl)c1c(N)n(Cc2ccccc2)c(=O)[nH]c1=O | 9
O=C(NC(=S)NCc1ccc2c(c1)OCO2)c1ccccc1 | 19
O=C(O)c1ccccc1N/C=C\[N+](=O)[O-] | 14
COc1c(OC2OC(C(=O)O)C(O)C(O)C2O)cc(O)c2c(=O)cc(-c3ccccc3)oc12 (centres undefined) | 7
O=C1CCN(C(=O)CSc2ccc(Cl)cc2)N1 | 12
C=C(Cl)COC(=O)C1C2C=CC(C2)C1C(=O)O (centres undefined) | 8
COc1ccc(CN2CCNC(=O)C2CC(=O)NCc2csc(C(C)C)n2)c(OC)c1 (centres undefined) | -14
COc1cccc(C(C)NC(=O)c2c(F)cccc2Cl)c1 (centres undefined) | 10
COc1ccc(OCc2nc3ccc(S(=O)(=O)Nc4ccccc4Cl)cc3[nH]2)cc1 | 24
Fc1ccc(Nc2cccc3nccnc23)cc1 | 16
CCN(CC)C(=O)Cn1cc(C(=O)C(=O)NCc2cccs2)c2ccccc21 | 21
CSc1ccc(S(=O)(=O)N(C)Cc2ccccc2)cc1 | 9
COc1cccc(OC)c1C(=O)NNC(=O)c1cccnc1 | 13
O=[N+]([O-])c1cc(-c2nc(-c3ccncc3)no2)cc([N+](=O)[O-])c1 | 15
C/C(=N\NC(=O)c1ccc(N(C)C)cc1)c1ccc(C)cc1C | 16
O=C(COc1ccc(Cl)cc1Cl)Nc1ccc(CN2CCCCC2)cc1 | 14
COC(OC)c1ccc(C#N)c(SCc2ccccc2)n1 | 12
O=C(c1ccc(-c2nc3ccccc3s2)s1)N1CCOCC1 | 3
COc1cc(OC)c(-c2c3cc(O)c(=O)cc-3oc3cc(O)c(O)cc23)cc1OC | 7
O=C(NC(=S)NC1CCS(=O)(=O)C1)c1cccs1 (centres undefined) | 11
CC(=O)c1ccc(Sc2ccccc2)c([N+](=O)[O-])c1 | 11
COc1cccc(/C=C/C(=O)OCC(=O)Nc2cccc(S(=O)(=O)N3CCOCC3)c2)c1OC | 8
COC(=O)c1cc(C)nc(Sc2ccccc2NC(C)=O)n1 | 6

In a second layout: entries from further up
molecule	Biofilm kill mix
O=C1CCCC(O)=C1N=Nc1ccc(Cl)c(Cl)c1	1
CCOc1cccc(CNCc2cccnc2)c1OCc1ccccc1	-4
CCN(CC(=O)NCc1cccs1)c1ccc(S(=O)(=O)N2CCN(C)CC2)cn1	21

Further records follow.
SMILES | Biofilm kill mix
Cc1nn(C2CCS(=O)(=O)C2)c(Cl)c1/C=C/C(=O)OCC(=O)Nc1ccc2c(c1)OCO2 (centres undefined) | 1
CSc1nc(NCCCO)c2c3c(sc2n1)CN(C)CC3 | 12
COc1c(Cl)cc(Cl)cc1CNCCO | 33
CCOC(=O)C1(Cc2cccc(OC)c2)CCN(Cc2cccc(O)c2)CC1 | 1
CCNC(=S)N/N=C(\C)c1ccc(N2CCOCC2)cc1 | 7
O=C(NCc1ccc(Cl)cc1)C(=O)c1c[nH]c2ccccc12 | 12
CC(/C=C1\SC(=S)N(CC(=O)N2CCN(c3ccccc3)CC2)C1=O)=C\c1ccccc1 | 11
CC1CCCN(Cc2c(O)ccc3c2O/C(=C\c2ccco2)C3=O)C1 (centres undefined) | 14
CCc1ccc(OCCCC(=O)Nc2nnc(C3CCCO3)s2)cc1 (centres undefined) | 26
COc1cc(NS(=O)(=O)c2ccc3[nH]c(=O)oc3c2)cc(OC)c1 | 27
COC(=O)c1ccc(C(=O)OC)c(NC(=S)N2CCN(c3ccccc3F)CC2)c1 | 17
NC(=NC(=O)c1ccc(OCC(F)(F)F)nc1)c1ccccc1 | 12
CSc1ccc(CN2CCN(C(C)C)C(CCO)C2)cc1 (centres undefined) | 7
COc1ccc2nc(NC(=O)CSc3nc(SC)ns3)sc2c1 | 19
COCCN(C(=S)Nc1c(C)cccc1C)C(C)c1cccs1 (centres undefined) | 15
COc1ccc(Cl)cc1S(=O)(=O)Nc1ccncc1 | 8
COC(C(=O)Nc1ccc(S(=O)(=O)Nc2c(C)cccc2C)cc1)c1ccccc1 (centres undefined) | 3
CCCS(=O)(=O)c1c(S(=O)(=O)CCC)c2ccc(C(C)=O)cn2c1C(=O)OC | 23
CCOC(=O)c1ccc(OS(=O)(=O)c2ccccc2)c(OC)c1 | 12
O=Cc1ccc(-n2cccn2)cc1 | 1
CCS(=O)(=O)N1CCCC(C(=O)c2ccc(OC)cc2C)C1 (centres undefined) | 22
Cc1nnc(SCC(=O)Nc2ccc3c(c2)OCO3)[nH]c1=O | 11
Cc1ccc(C(=O)/C=C\Nc2ccc(C)c(C)c2)cc1 | 4
COc1ccc2c(c1)-c1nc(/N=C/c3ccc(O)c(OC)c3)sc1CC2 | 17
O=C(CSc1cccc(C(F)(F)F)c1)Nc1cc(S(=O)(=O)N2CCCC2)ccc1Cl | 18

Arranged by SMILES length (descending): some entries from above
SMILES | Biofilm kill mix
COc1ccc2c(c1OC)C(=O)O[C@@H]2[C@H]1c2c(cc3c(c2OC)OCO3)CCN1C | 5
O=C(CSc1cccc(C(F)(F)F)c1)Nc1cc(S(=O)(=O)N2CCCC2)ccc1Cl | 18
COC(=O)c1ccc(C(=O)OC)c(NC(=S)N2CCN(c3ccccc3F)CC2)c1 | 17

(continued)
SMILES | Biofilm kill mix
CC(=O)NC(CC(=O)NC(C)c1ccc(Cl)cc1Cl)c1ccccc1 (centres undefined) | 9
COc1ccccc1C(O)c1nccn1C (centres undefined) | 21
CN(C)c1ccc(-c2nc3cnccn3c2Nc2ccc3c(c2)OCCO3)cc1 | 21
O=S(=O)(c1ccccc1)N1CCN(c2nnc(-c3ccccc3)c3ccccc23)CC1 | 4
Cc1cc(C(=O)CN2CCCC(C)C2)c(C)n1-c1ccc(F)cc1 (centres undefined) | 1
CCCC(C)NC(=O)COc1ccc(S(=O)(=O)N2CCCC2)cc1 (centres undefined) | 27
COc1cccc(/C=N/N=C(\N)c2nonc2N)c1O | 7
CN1CCN(C(=O)N2c3ccccc3CCc3ccccc32)CC1 | 13
COc1ccccc1OCCOCCOc1ccc(C)cc1Br | 20
Cc1nn(-c2ccccc2)c(C)c1/C=N/N1CCN(c2ccccn2)CC1 | 5
Cc1cccc(NC(=O)/C(C#N)=C/c2cn(CC(=O)NCc3ccco3)c3ccccc23)c1 | 10
Cc1ccc(NC(=S)NNC(=O)Cn2nc(C(F)F)cc2C(F)F)cc1 | 10
Cc1cc(Br)ccc1SCC(=O)OCC(=O)NCc1ccco1 | 24
COc1ccc(N2C(=O)CC(N3CCCCC3)C2=O)cc1 (centres undefined) | 8
CN(c1cccc(NC(=O)c2ccc(N(C)S(=O)(=O)c3ccccc3)cc2)c1)S(C)(=O)=O | 5
COc1cc(C(=O)N/N=C(\Cc2ncc[nH]2)c2ccccc2)cc(OC)c1OC | 9
Cc1ccc(NS(=O)(=O)Cc2ccccc2)nc1 | 12
Cc1ccc2c(C(=O)CCl)c(C)[nH]c2c1 | 18
N/C(=N\OC(=O)COc1ccc(Br)cc1Cl)c1ccccn1 | 14
Brc1ccc(C2CC(c3ccccc3)=Nc3ccccc3N2)cc1 (centres undefined) | 15
CCCCN1C(=O)C(=O)N(c2ccccc2)C1=S | 17
COc1ccc(CN(C(=O)c2ccc(CN3CCOCC3)o2)C(C(=O)NCC2CCCO2)c2ccc(F)cc2)cc1 (centres undefined) | -3
O=C(Cn1nnc2ccccc2c1=O)Nc1cccc(S(=O)(=O)N2CCOCC2)c1 | 16
COc1cc(C(C(=O)NC2CCCCC2)N(C(=O)Cc2c[nH]c3ccccc23)c2ccccc2C)cc(OC)c1OC (centres undefined) | 9
CC(C)S(=O)(=O)c1nsc2nc(=O)c(/C=C3\C=Nc4ccccc43)c(N)n12 | 15
(cont.)
SMILES | Biofilm kill mix
Cc1cc(S(=O)(=O)NCc2ccccc2)ccc1OCC(=O)N1CCOCC1 | 8
COc1ccc(/C=N/n2cnnc2)cc1Br | 13
O=C1NCCN/C1=C\C(=O)c1cccc(Br)c1 | 24
CSc1ccc(/C=C(/NC(=O)c2ccc(C)cc2)C(=O)Nc2cccc(F)c2)cc1 | 10
CCN1CCN(S(=O)(=O)c2ccc(Cl)c(C(=O)NC(C)(C)C)c2)CC1 | 9
Cc1cccc(Cc2cnc(N3C(=N)SC(C)C3=O)s2)c1 (centres undefined) | 17
COc1cc2c(cc1OC)C(c1cccs1)N(C(=O)c1cccnc1)CC2 (centres undefined) | 15
O=C(O)CC1S/C(=N\N=C2CCCCCC2)N(c2ccccc2)C1=O (centres undefined) | 29
Cc1cc2cc(CNC(=O)c3ccco3)ccc2n1C | 15
COc1ccc(CNC(=O)C/C(C)=N/NC(=O)Cc2ccc(OC)cc2)cc1 | -5
CC(=O)Nc1ccc(OC(=O)c2ccco2)cc1 | 13
O=[N+]([O-])c1cc(Cl)ccc1NCCNS(=O)(=O)c1ccccc1 | 28
Cc1ccc(C(=O)Oc2coc(CSc3nnc(NC(=O)C4CC4)s3)cc2=O)cc1C | -5
O=c1ccnc(SCCC(F)=C(F)F)[nH]1 | 10
Cc1[nH][nH]c(=O)c1C(c1c(C)[nH][nH]c1=O)c1cn(Cc2ccc(F)cc2)c2ccccc12 | 12
COc1ccc(NC(=O)Cn2nnc(-c3ccccc3NS(=O)(=O)c3ccc(OC)cc3)n2)cc1 | 6
COc1ccc(N(CC(=O)Nc2ccc(C)cc2C)S(=O)(=O)c2ccccc2[N+](=O)[O-])c(OC)c1 | 22
CC(=O)Nc1ccc(/C(C)=N/NC(=O)c2ccc(F)cc2)cc1 | 22
O=C(Nc1cccc(Cl)c1)Nc1nnc(-c2ccncc2)s1 | 14
COC(=O)c1ccc(N2CCS(=O)(=O)CC2)cc1 | 13
COc1ccc(C(=O)NNC2=CC(=O)CC(C)(C)C2)cc1 | 15

Four of these compounds in a different format.
O=C(Nc1cccc(Cl)c1)Nc1nnc(-c2ccncc2)s1
- Biofilm kill mix = 14

CC(=O)Nc1ccc(/C(C)=N/NC(=O)c2ccc(F)cc2)cc1
- Biofilm kill mix = 22

CCN1CCN(S(=O)(=O)c2ccc(Cl)c(C(=O)NC(C)(C)C)c2)CC1
- Biofilm kill mix = 9

CC(=O)Nc1ccc(OC(=O)c2ccco2)cc1
- Biofilm kill mix = 13
